D2 potentiator – Beta-Arrestin HTS for Positive Allosteric Modulators of the Human D2 Dopamine Receptor: Potentiators. D(2) dopamine receptor (Homo sapiens), P14416. DiscoveRx D2 beta-arrestin cells, luminescence, 90 min; 100% = 57 uM dopamine signal. potentiation, % (no concentration beside the values). 0.23% of 360,000 active; active = potentiation of 50% or more; inconclusive = 30% to 50%; inactive = 30% or less;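 also: compound concentration not given in the record; tested on top of an EC20 dose of dopamine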
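PathHunter beta-arrestin assay in DiscoveRx D2 cells. Compounds were added with an EC20 of dopamine (50 nM final) for 90 min at 37 deg C. Luminescence was read 1 h after detection reagent, with 57 uM dopamine as the EC100 control.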
CtBP-E1A inh – qHTS Assay for Inhibitors of the CtBP/E1A Interaction; 0.49% of 340,000 active; activity change, % (concentration not given with the values); CtBP / adenovirus E1A interaction (AlphaScreen); AlphaScreen GST-E1A/His-CtBP binding, 1536-well; stronger effect = lower value; control for the full effect not named in the record; AID 651724, 2012; in the data active means activity change below about -65%; inconclusive means about -30% to -65%; inactive means above about -30%; also: % is scaled to controls: 0 for no effect and ±100 for the full control effect
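In 5 uL wells, 23 nL compound meets equimolar GST-E1A and His-CtBP (5X stock 125 nM each) for 2 h, 37 °C. Beads (5X, 50 ug/mL) then 1 h, 37 °C, dark.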
TRPML1 agonist – qHTS for Agonists of the Human Mucolipin Transient Receptor Potential 1 (TRPML1); activation, % (concentration not given with the values); AID 624414, 2012; TRPML1-expressing cells, Ca2+ dye fluorescence, FDSS; host cell line not named in the record; reference of the full effect not given here; Mucolipin-1 (Homo sapiens), Q9GZU1; 0.12% of 410,000 active; in the data active = activation above about 50%; inconclusive = about 30% to 50%; inactive = below about 30%; also: 0% is about no effect; the text of the record puts the active cut at 80%
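Calcium fluorescence on an FDSS kinetic reader gave the read-out. Tet-induced TRPML1-DL cells were plated overnight, dye-loaded (Ca8 with quencher, 45-90 min, room temperature, dark), then read 110 s after compound addition, and again 110 s after 4uM final 54-4 (EC80).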
Six1-Eya2 inh – qHTS Assay for Inhibitors of the Six1/Eya2 Interaction; activity change, % (test concentration not listed); Homeobox protein SIX1 (Homo sapiens) + Protein phosphatase EYA2 (Homo sapiens), …; AlphaScreen GST-Six1/His-Eya2 binding, biochemical; stronger effect = lower value; control for the full effect not named in the record; 0.56% of 360,000 active; AID 651725, 2012; in the data active = activity change below about -65%; inconclusive = about -30% to -65%; inactive = above about -30%; also: % is scaled to controls: 0 for no effect and ±100 for the full control effect; compound concentration not given in the record
Target sequence (O00167 whole entry, looked up): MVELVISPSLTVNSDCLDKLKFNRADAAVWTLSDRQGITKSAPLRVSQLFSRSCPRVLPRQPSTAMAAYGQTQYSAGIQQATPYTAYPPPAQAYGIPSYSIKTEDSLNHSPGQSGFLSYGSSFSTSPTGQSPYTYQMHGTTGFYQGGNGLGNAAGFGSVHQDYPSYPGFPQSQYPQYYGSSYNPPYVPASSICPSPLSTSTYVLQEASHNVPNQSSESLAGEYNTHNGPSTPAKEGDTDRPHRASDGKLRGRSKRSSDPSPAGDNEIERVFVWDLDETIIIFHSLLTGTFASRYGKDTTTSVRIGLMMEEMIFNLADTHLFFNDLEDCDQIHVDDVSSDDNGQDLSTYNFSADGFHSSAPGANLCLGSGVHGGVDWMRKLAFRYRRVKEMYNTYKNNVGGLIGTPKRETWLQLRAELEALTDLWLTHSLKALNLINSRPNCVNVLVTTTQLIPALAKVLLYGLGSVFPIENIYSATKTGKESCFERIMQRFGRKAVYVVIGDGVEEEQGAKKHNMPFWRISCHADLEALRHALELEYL
Target sequence (Q15475 whole entry, looked up): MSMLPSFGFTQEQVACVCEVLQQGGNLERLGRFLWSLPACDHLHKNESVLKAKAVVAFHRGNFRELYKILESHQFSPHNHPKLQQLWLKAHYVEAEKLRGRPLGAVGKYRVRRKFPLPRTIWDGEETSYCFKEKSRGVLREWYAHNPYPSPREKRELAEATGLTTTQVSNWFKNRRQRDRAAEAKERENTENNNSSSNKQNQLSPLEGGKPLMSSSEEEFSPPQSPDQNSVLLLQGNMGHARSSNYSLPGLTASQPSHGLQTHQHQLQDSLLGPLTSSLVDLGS
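Compounds are tested against tagged Six1 and Eya2 proteins bridged by glutathione donor and nickel acceptor beads; after a one-hour incubation at 37 °C without light, AlphaScreen emission is recorded.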
PINK1 modulator – A Quantitative High throughput Screen to Identify Chemical Modulators of PINK1 Expression. Potency, µM (highest dose often 76.6 µM), for the others: top-dose activation (PINK1 increase), hits mostly activators. PINK1 immunofluorescence, high-content cytometry, 24 h. AID 624263, 2012. 0.2% of 410,000 active; active = well fitted activation curve with a large enough effect; inconclusive = small, poorly fitted or top-dose-only effect; inactive = flat fitted curve, though single readings scatter; cell line not stated here;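 also: potency is read from the fitted curve at half-maximal effect; % of control where 0% means no effect; nearly all actives have a fitted effect of over 65% in size; a mitochondrial uncoupler was the plate control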
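PINK1 protein level read as immunofluorescence by microplate cytometer in a fixed, stained stable cell line after 24 h exposure to five compound concentrations, with CCCP as control.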
D2 agonist – Beta-Arrestin HTS for Positive Allosteric Modulators of the Human D2 Dopamine Receptor: Agonists; D(2) dopamine receptor (Homo sapiens), P14416; DiscoveRx PathHunter D2 beta-arrestin, luminescence, 90 min; 100% = 57 uM dopamine signal; activation, % (concentration not given with the values); 0.084% of 360,000 active; AID 624465, 2012; in the data active = activation above about 40%; inconclusive = about 15% to 40%; inactive = below about 15%; also: compound concentration not given in the record; the text of the record calls up to 30% inactive
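Agonist mode: compounds alone added to overnight-plated D2 PathHunter cells for 90 min at 37 C, with 57 uM final dopamine (EC100) defining full response. Beta-arrestin recruitment detected by chemiluminescent reagent, read after 1 h at ambient temperature.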
Starred values were filed as active, the others as inactive; & = joins results of further samples; [ ] = another dose, or the depositor's remark.

Screening Cc1ccccc1CN1C(=O)c2ccccc2Sc2ccc(C(=O)O)cc21 returned D2 potentiator -8, CtBP-E1A inh 2, TRPML1 agonist 0.0&1.1, Six1-Eya2 inh 1, PINK1 modulator -0.5%&-0.4% and D2 agonist -4.7.
For O=C(O)[C@H]1CCCC[C@H]1C(=O)Nc1ccc(Nc2ccccc2)cc1 the results were D2 potentiator 23, CtBP-E1A inh -5, TRPML1 agonist -0.6, Six1-Eya2 inh -5, PINK1 modulator -0.3% and D2 agonist -2.1.
`CCC(=O)Nc1cccc(C2=NOC3(C2)C[C@H](C(N)=O)N(C(=O)c2ccc(Cl)cc2)C3)c1` (stereo partly drawn) gave D2 potentiator -4, CtBP-E1A inh -10, TRPML1 agonist 0.5, Six1-Eya2 inh 2, PINK1 modulator -2.0% and D2 agonist -3.2.
`O=C(c1cccc(Oc2ccc([N+](=O)[O-])cc2)c1)N1CCOCC1` gave D2 potentiator -12, CtBP-E1A inh 0, TRPML1 agonist -0.4, Six1-Eya2 inh -3, PINK1 modulator -0.4% and D2 agonist -1.5.
For O=C(OCn1nnc2ccccc2c1=O)C12CC3CC(CC(O)(C3)C1)C2 the results were D2 potentiator -2, CtBP-E1A inh -25, TRPML1 agonist 0.9, Six1-Eya2 inh 1, PINK1 modulator -1.4% and D2 agonist -6.5.
For CC1(C)N=C(N)NC(Nc2ccccc2)=N1 the results were D2 potentiator -12, CtBP-E1A inh 5, TRPML1 agonist -0.1, Six1-Eya2 inh 3, PINK1 modulator 3.6% and D2 agonist -3.6.
For CC(C)n1c(O)c(N=NC(=O)Cn2ccc(C(F)(F)F)n2)c2ccccc21 the results were D2 potentiator -23, CtBP-E1A inh -7, TRPML1 agonist 3.2, Six1-Eya2 inh -1, PINK1 modulator 7.1% and D2 agonist -2.5.
COC(=O)/C(C#N)=C/c1ccc(-c2ccc(S(N)(=O)=O)cc2)o1 was read as D2 potentiator -2, CtBP-E1A inh -1, TRPML1 agonist 0.7, Six1-Eya2 inh 7, PINK1 modulator 0.5% and D2 agonist -0.7.
`Cc1ccc(C(=O)NCCNC(=O)c2cnccn2)cc1` gave D2 potentiator -4, CtBP-E1A inh -7, TRPML1 agonist 0.1, Six1-Eya2 inh 10, PINK1 modulator -0.2% and D2 agonist -3.5.
O=C(CSc1ncc(C(F)(F)F)cc1Cl)NCC1CCCO1 (stereo not drawn) was read as D2 potentiator -2, CtBP-E1A inh 5, TRPML1 agonist 0.3, Six1-Eya2 inh 6, PINK1 modulator -0.6% and D2 agonist -0.2.
For CC(=O)Nc1ccc(S(=O)(=O)Oc2cccc(N3C(=O)C4CCCCC4C3=O)c2)cc1 (stereo not drawn) the results were D2 potentiator 18, CtBP-E1A inh -1, TRPML1 agonist -0.5, Six1-Eya2 inh 3, PINK1 modulator 0.0%[38.3 µM] and D2 agonist -1.8.
Screening CC(=O)NC1CCCN(O)C(=O)/C=C(\C)CCOC(=O)C(NC(C)=O)CCCN(O)C(=O)/C=C(\C)CCOC(=O)C(NC(C)=O)CCCN(O)C(=O)/C=C(\C)CCOC1=O (stereo not drawn) returned D2 potentiator -23, CtBP-E1A inh 20, Six1-Eya2 inh 16, PINK1 modulator -0.9% and D2 agonist -1.3.
For CCCOc1cccc(/C=N/NC(=O)c2csc(C)c2C)c1 the results were D2 potentiator -9, CtBP-E1A inh 5, TRPML1 agonist 0.3, Six1-Eya2 inh -2, PINK1 modulator 1.5% and D2 agonist -1.4.
Screening O=C(NCCc1ccc(F)cc1)c1ccncc1 returned D2 potentiator -6, CtBP-E1A inh -25, TRPML1 agonist -0.1, Six1-Eya2 inh -9, PINK1 modulator -1.3% and D2 agonist -4.6.
CCOC(=O)c1cccc(NC(=O)CCn2cccc2)c1 was read as D2 potentiator -9, CtBP-E1A inh -25, TRPML1 agonist -1.2, Six1-Eya2 inh -9, PINK1 modulator 0.4% and D2 agonist -1.1.
Screening COC(=O)COc1ccc(/C=N/NC(=O)c2ccc(N(Cc3ccccc3)S(C)(=O)=O)cc2)cc1 returned D2 potentiator 15, CtBP-E1A inh -79*, TRPML1 agonist -1.1, Six1-Eya2 inh -75*, PINK1 modulator -2.8% and D2 agonist -5.4.
`CCN(CC)C(=O)c1cccc2c1C(=O)c1ccccc1-2` gave D2 potentiator 20, CtBP-E1A inh 3, TRPML1 agonist -0.3, Six1-Eya2 inh 1, PINK1 modulator 0.5% and D2 agonist 0.6.
For O=C(C1CCCN(Cc2ccc(Cl)cc2)C1)N1CCCCC1 (stereo not drawn) the results were D2 potentiator -27, CtBP-E1A inh 3, TRPML1 agonist 1.4, Six1-Eya2 inh 1, PINK1 modulator 0.8% and D2 agonist 5.2.
`O=C(NNC(=O)c1cc(OCC(F)(F)F)ccc1OCC(F)(F)F)c1ccc(Cl)c(Cl)c1` gave D2 potentiator -24, CtBP-E1A inh -10, TRPML1 agonist 1.1, Six1-Eya2 inh -8, PINK1 modulator 11% and D2 agonist -7.8.
Screening O=C(COC(=O)c1cccc(NC(=O)c2ccco2)c1)c1ccc(Br)cc1 returned D2 potentiator -1, CtBP-E1A inh -1, TRPML1 agonist 1.2, Six1-Eya2 inh -8 and D2 agonist 1.7.
`CCOC(=O)[C@]12CCCC=C1N(Cc1ccco1)C(=O)[C@H](CC(=O)NCC1CCCCC1)C2` gave CtBP-E1A inh -1, TRPML1 agonist -1.3, Six1-Eya2 inh 2 and PINK1 modulator -0.4%.
Screening O=C(CN1CCOCC1)Nc1nc2ccc(Cl)cc2s1 returned D2 potentiator -24, Six1-Eya2 inh -9, PINK1 modulator 1.8% and D2 agonist -0.9.
For O=C(O)CC/C(=N/NC(=O)CNC(=O)Cc1ccc(Cl)cc1)c1ccccc1 the results were D2 potentiator 1, CtBP-E1A inh 5, TRPML1 agonist -0.1, Six1-Eya2 inh -5, PINK1 modulator 1.5% and D2 agonist 0.5.
For O=C(CCSc1nnc(-c2ccco2)o1)Nc1ccccc1 the results were D2 potentiator -17, CtBP-E1A inh 0, TRPML1 agonist -0.2, Six1-Eya2 inh 0, PINK1 modulator 2.0% and D2 agonist -5.8.
For Cc1ccc(C(C(=O)NC2CCCC2)N(C(=O)c2csnn2)c2cccc(F)c2)o1 (stereo not drawn) the results were D2 potentiator -4, CtBP-E1A inh 0, TRPML1 agonist 0.6, Six1-Eya2 inh -5, PINK1 modulator 4.6% and D2 agonist -3.4.
`COCOc1ccc(-c2oc3c(C/C=C(\C)CCC=C(C)C)ccc(O)c3c(=O)c2OCOC)c(OCOC)c1` gave D2 potentiator -5, CtBP-E1A inh 8, Six1-Eya2 inh 0, PINK1 modulator -0.6% and D2 agonist -2.2.
Screening O=S(=O)(NN=C1CCCCCC1)c1ccc(Cl)cc1 returned D2 potentiator -31, CtBP-E1A inh 7, TRPML1 agonist 0.3, Six1-Eya2 inh 1, PINK1 modulator -0.3% and D2 agonist -2.7.
`Cc1cccc(-n2nnc3cnn(C)c3c2=O)c1` gave D2 potentiator -15, CtBP-E1A inh 0, TRPML1 agonist 1.4, Six1-Eya2 inh -6, PINK1 modulator -2.6% and D2 agonist 2.0.
`O=CNc1c(Cl)cc2c(c1Cl)Cc1cc([N+](=O)[O-])ccc1-2` gave D2 potentiator 16, CtBP-E1A inh -1, TRPML1 agonist 0.7, Six1-Eya2 inh -7, PINK1 modulator -1.3% and D2 agonist 12.
Screening CN(C[C@H](Cc1ccccc1)N(C[C@H](Cc1cccc2ccccc12)N(CCc1ccccc1)N=O)N=O)N=O returned D2 potentiator 1, CtBP-E1A inh -6&0, TRPML1 agonist 0.4&1.5, Six1-Eya2 inh -8&15, PINK1 modulator -1.4%&0.3% and D2 agonist 1.2.
`CCOC(=O)N1CCC(N(CCN(C)C)C(=S)Nc2cc(C)cc(C)c2)CC1` gave D2 potentiator 17, CtBP-E1A inh 7, TRPML1 agonist 0.3, Six1-Eya2 inh 1, PINK1 modulator -1.2% and D2 agonist -1.5.
`CCN(CC)CC(=O)c1c[nH]c2ccccc12` gave D2 potentiator -10, CtBP-E1A inh 0, TRPML1 agonist 0.0, Six1-Eya2 inh -1, PINK1 modulator 1.7% and D2 agonist -1.4.
CSc1ccccc1NC(=O)COc1nsnc1N1CCOCC1 was read as D2 potentiator 4, CtBP-E1A inh -7, TRPML1 agonist 0.8, Six1-Eya2 inh -7, PINK1 modulator -1.0% and D2 agonist 1.8.
`COc1cccc(C2CC(=O)Nc3cc(C)c(C)cc32)c1` (stereo not drawn) gave D2 potentiator -2, CtBP-E1A inh 0, TRPML1 agonist -0.2, Six1-Eya2 inh -3, PINK1 modulator 14% and D2 agonist -6.4.
For Cc1nn(Cc2ccc(C(=O)N3CCCC3)o2)c(C)c1[N+](=O)[O-] the results were D2 potentiator 7, CtBP-E1A inh 3, TRPML1 agonist 1.8, Six1-Eya2 inh 5, PINK1 modulator -1.3% and D2 agonist -5.8.
C=CCN(C/C(=N\O)c1sc(C(=O)OCC)nc1C)c1cccc(Br)c1 was read as D2 potentiator 14, CtBP-E1A inh -4, TRPML1 agonist 0.5, Six1-Eya2 inh -16, PINK1 modulator 0.9% and D2 agonist 5.9.
For COc1ccc(C2=NOC(CNC(N)=S)C2)cc1 (stereo not drawn) the results were D2 potentiator -4, TRPML1 agonist 0.1, Six1-Eya2 inh 5, PINK1 modulator 3.8% and D2 agonist -2.9.
COc1ccc(CC(=O)Nc2c(C(N)=O)oc3ccccc23)cc1 was read as D2 potentiator 2, TRPML1 agonist 2.3, Six1-Eya2 inh -2, PINK1 modulator 0.6% and D2 agonist -2.0.
`CN(C)c1ccc(C(=S)N2CCN(C(=S)Nc3cccc4ccccc34)CC2)cc1` gave D2 potentiator -3, CtBP-E1A inh -1, TRPML1 agonist -1.2, Six1-Eya2 inh -7, PINK1 modulator 0.2% and D2 agonist -3.7.
Screening O=C(NCC(=O)N1CCCCCCC1)c1ccccc1Br returned D2 potentiator -13, CtBP-E1A inh 2, TRPML1 agonist 1.4, Six1-Eya2 inh -13, PINK1 modulator 1.0% and D2 agonist -6.6.
Clc1ccc(NN(Cc2ccncc2)c2ccc(Cl)cc2)cc1 was read as D2 potentiator -6, CtBP-E1A inh 2, TRPML1 agonist -0.7, Six1-Eya2 inh -11, PINK1 modulator 0.9% and D2 agonist 6.0.
CCOc1ccc(NCc2cc3cc(OC)ccc3[nH]c2=O)cc1 was read as D2 potentiator -1, CtBP-E1A inh -20, TRPML1 agonist 2.3, Six1-Eya2 inh 5, PINK1 modulator 0.0% and D2 agonist -1.4.

2 successive entries from above:
`CCOC(=O)[C@]12CCCC=C1N(Cc1ccco1)C(=O)[C@H](CC(=O)NCC1CCCCC1)C2` gave CtBP-E1A inh -1, TRPML1 agonist -1.3, Six1-Eya2 inh 2 and PINK1 modulator -0.4%.
Screening O=C(CN1CCOCC1)Nc1nc2ccc(Cl)cc2s1 returned D2 potentiator -24, Six1-Eya2 inh -9, PINK1 modulator 1.8% and D2 agonist -0.9.

From PubChem BioAssay

An unsorted share of the library (roughly 1.3% active in at least one column).
